Sfp PPTase inh: Sfp phosphopantetheinyl transferase inhibition; 3.5% of 310,000 active; Q9F4F7; Biochemical Sfp PPTase activity, qHTS; Potency, µM, inactives show max response, negative = inhibition, actives largely listed as inhibitors; active = well fitted inhibition curve with a large enough effect; inconclusive = small, poorly fitted or top-dose-only effect, or another doubt; inactive = no such curve, though single readings can be large or run the other way;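 also: the enzyme is Sfp with the accession as filed and its product quenches rhodamine fluorescence; potency is read from the fitted curve at half-maximal effect; 0% = enzyme reaction without inhibitor and -100% = no enzyme wells; top concentration of the series not given in the record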
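Buffer: 50 mM Hepes-Na pH 7.6, 10 mM MgCl2, 0.01% Nonidet P-40, 0.01% BSA. Enzyme 15 nM, pre-exposed to compound 15 min; substrates then added and fluorescence change tracked over 30 min.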
D2 agonist: activates the human D2 dopamine receptor | P14416 | DiscoveRx PathHunter D2 beta-arrestin, luminescence, 90 min; 100% = 57 uM dopamine signal | activation, % (concentration not given with the values) | 0.084% of 360,000 active; in the data active = activation above about 40%; inconclusive = about 15% to 40%; inactive = below about 15%; also: compound concentration not given in the record; the text of the record calls up to 30% inactive
Target sequence (P14416 whole entry, looked up): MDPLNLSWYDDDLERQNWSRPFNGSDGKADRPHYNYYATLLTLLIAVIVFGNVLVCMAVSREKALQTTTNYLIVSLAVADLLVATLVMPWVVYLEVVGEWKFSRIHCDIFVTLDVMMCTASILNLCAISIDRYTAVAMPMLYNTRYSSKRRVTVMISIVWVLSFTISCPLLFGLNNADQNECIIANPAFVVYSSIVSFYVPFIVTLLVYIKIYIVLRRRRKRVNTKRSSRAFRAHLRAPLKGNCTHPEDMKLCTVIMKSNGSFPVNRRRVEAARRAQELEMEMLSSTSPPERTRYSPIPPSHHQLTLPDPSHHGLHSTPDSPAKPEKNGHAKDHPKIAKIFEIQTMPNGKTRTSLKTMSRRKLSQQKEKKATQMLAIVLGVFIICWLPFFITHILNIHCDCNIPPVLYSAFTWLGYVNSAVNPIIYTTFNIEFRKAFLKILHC
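DiscoveRx PathHunter D2 beta-arrestin cells (2,100/well) attached overnight, then compound-stimulated 90 min at 37 C in HBSS/10 mM HEPES/0.1% Tween-20 buffer; beta-galactosidase complementation read by luminescence after 1 h at ambient temperature. Dopamine 57 uM final (EC100) as control.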
gsp antag: antagonizes gsp, the McCune-Albright syndrome mutation. 0.4% of 340,000 active. gsp-mutant cells, cAMP HTRF, 30 min; control for the full effect not named in the record. Potency, µM (titrated, usually from 76.9 µM), for the others: at the top dose activity change, negative = inhibition, most hits filed as inhibitors; active = falling curve of any shape with a large fitted effect; inconclusive = falling curve, mostly with a smaller effect; inactive = flat or rising curve; cell line not stated here;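 also: intracellular cAMP measured with PDE inhibitor Ro 20-1724 present during compound exposure; potency is read from the fitted curve at half-maximal effect; % is scaled to controls: 0 for no effect and ±100 for the full control effect; nearly all actives have a fitted effect of over 65% in size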
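Cells in G418 medium, seeded 16-24 h, 37C; buffer exchange to DPBS + 1 mM CaCl2, 0.5 mM MgCl2, 0.05% BSA; cpds in DMSO + […] (300 uM stock), 30 min 37C; HTRF cAMP detection.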
PINK1 expr mod: PINK1 expression modulation; PINK1 immunofluorescence, high-content cytometry, 24 h; Potency, µM (titrated, usually from 76.6 µM), inactives show at the top dose activation (PINK1 increase), most hits filed as activators; 0.2% of 410,000 active; AID 624263; active = well fitted activation curve with a large enough effect; inconclusive = small, poorly fitted or top-dose-only effect; inactive = flat fitted curve, though single readings scatter; cell line not stated here;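 also: potency is read from the fitted curve at half-maximal effect; % of control where 0% means no effect; nearly all actives have a fitted effect of over 65% in size; a mitochondrial uncoupler was the plate control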
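A stable cell line was treated with compounds at 5 concentrations for 24 hours, with CCCP as control. PINK1 levels and mitochondrial localization were measured by immunofluorescence with mitochondrial, cell and nuclear markers after fixation, read by laser-scanning cytometry.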
ClpP mod: qHTS Assay for Activators of ClpP; ATP-dependent Clp protease proteolytic subunit (Bacillus subtilis (strain 168)), P80244; purified B. subtilis ClpP, FRET peptide cleavage, 20 min; Potency, µM (top dose mostly 57.5 µM), without a hit: at the highest dose activity change, negative = active; 1.9% of 340,000 active; active = well fitted falling curve with a large enough effect; inconclusive = small, poorly fitted or top-dose-only effect; inactive = no such curve, though single readings can be large or run the other way; also: potency is read from the fitted curve at half-maximal effect; the source files actives as falling curves though it sought activators and does not explain the sign; nearly all actives have a fitted effect of over 65% in size; many hits overshoot -100%
Target sequence (P80244 whole entry, looked up): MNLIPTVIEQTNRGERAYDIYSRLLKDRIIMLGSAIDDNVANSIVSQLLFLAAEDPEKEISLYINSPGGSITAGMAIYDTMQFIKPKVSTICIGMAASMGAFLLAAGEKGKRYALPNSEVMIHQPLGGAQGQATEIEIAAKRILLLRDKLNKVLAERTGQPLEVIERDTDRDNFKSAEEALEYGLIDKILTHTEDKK
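Purified B. subtilis ClpP, 10 microg/mL final in Tris/HCl pH8 with KCl, BSA, glycerol and Tween-20, cleaved an Abz/nitrotyrosine-quenched decapeptide. Fluorescence (ex 320, em 430) was read at 0 and 20 min at room temperature. Delta was normalized to 5.8 microM ADEP and DMSO/no-enzyme controls.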
gsp agonist: agonists of gsp mutant (McCune-Albright syndrome). Potency, µM (doses to about 76.9 µM), for inactives: at the top dose activation (cAMP increase), most hits filed as activators. gsp mutant cells, cAMP HTRF, 30 min; control for the full effect not named in the record. 0.13% of 340,000 active; active = well fitted activation curve with a large enough effect; inconclusive = small, poorly fitted or top-dose-only effect, or another doubt; inactive = no such curve, though single readings can be large or run the other way; cell line not stated here;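 also: phosphodiesterase inhibitor Ro 20-1724 added with compounds to block cAMP breakdown; potency is read from the fitted curve at half-maximal effect; nearly all actives have a fitted effect of over 60% in size; about a fifth of the inactives were tested at one dose only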
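Cells in DMEM/10% FBS with G418 were pretreated with compounds in DMSO plus […] (300 uM stock) for 30 min at 37C. cAMP was measured by HTRF (cAMP-d2 plus anti-cAMP antibody-K) after 30 min at room temperature.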
Menin-MLL FL inh: menin-MLL binding inhibition, fluorescein peptide; Fluorescence polarization, fluorescein-MLL peptide displacement from menin; FP activity change, % at 61.4 µM; 290,000 tested, under 10 active; AID 1766; inconclusive = falling polarisation curve, or a change in total fluorescence; inactive = total fluorescence flat and polarisation flat or rising; no compound was filed as active; the % refers to the polarisation; negative = inhibition;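 also: % of control where 0% means no effect; inhibitors lower the polarisation; unlabelled MLL peptide was the positive control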
Starred values were filed as active, the others as inactive; u = inconclusive; x = no result given; [ ] = dose if it differs, or a comment.

Order of results – Sfp PPTase inh	D2 agonist	gsp antag	PINK1 expr mod	ClpP mod	gsp agonist	Menin-MLL FL inh
1) Nc1ncnc2c1ncn2[C@@H]1O[C@H](CNCc2cccc(C#Cc3ccccc3)c2)[C@@H](O)[C@H]1O
    x	-1.0	2%	1.4%	-4.2%	x	x
2) CC(C)(C)c1ccccc1NC(=O)NC1CCN(Cc2c(F)cccc2Cl)CC1
    -13%	-0.9	1%	0.7%	x	0%[15.4 µM]	3.6
3) O=C(NNC(=O)C1CCN(c2ncccn2)CC1)c1ccccc1
    13%	3.2	5%	-1.7%	-19%	16%	-0.1
4) Cc1nn(-c2ccccc2)c(C)c1NC(=O)COc1ccc(C#N)cc1
    21%	1.8	1%	0.7%	14%	-1%	2.9
5) NC(=O)CSc1nnc(NC(=O)C2CC(=O)N(c3ccc(F)cc3)C2)s1 (stereo unspecified)
    u	-3.6	4%	1.1%	-1.8%	-10%	11
6) CC1CC(C)CN(S(=O)(=O)c2ccc(C(=O)N(C)Cc3ccccc3)cc2)C1 (stereo unspecified)
    x	-0.7	-2%	0.1%	0.4%	-8%	x
7) Cc1cc(C)nc(NNC(=O)NC2CCCCC2)n1
    -8%	-4.5	8%	-1.1%	1.3%	u	-6.3
8) O=C(CCNC(=O)c1ccc(Cl)cc1)NCCC1=CCCCC1
    x	-4.0	-4%	-2.5%	x	-22%[15.4 µM]	x
9) Cc1cccc(C=CC(=O)c2ccc(Cl)cc2)c1
    x	0.1	-11%	1.9%	0.2%	9%[15.4 µM]	x
10) O=C(OCC1OC(n2cnc3c(N(C(=O)c4ccccc4)C(=O)c4ccccc4)ncnc32)C(O)C1F)c1ccccc1 (stereo unspecified)
    16%	1.1	-11%	0.0%[38.3 µM]	-1.3%	12%	2.7
11) COCCCNC(NC(=O)c1ccc(C)cc1)C(Cl)(Cl)Cl (stereo unspecified)
    11%	-3.3	8%	0.4%	-5.2%	-1%	3.2
12) COC(=O)CC1Sc2ccccc2NC1=O (stereo unspecified)
    8%	0.8	3%	-1.8%	-3.6%	9%	2.9
13) CCOCc1c(C(=O)Nc2ccc(OC)nc2)oc2ccccc12
    4%	-3.8	-15%	2.4%	x	18%[15.4 µM]	u
14) O=C(O)c1cc(S(=O)(=O)Nc2cccc(S(=O)(=O)N3CCCC3)c2)ccc1Cl
    x	-1.8	9%	-0.6%	-2.9%	-8%	x
15) CC1CCCCN1CCCNC(=O)c1nn(C)c2c1CSc1ccccc1-2 (stereo unspecified)
    7%	-3.8	12%	-1.2%	1.3%	u	-8.3
16) CC1=NNC(=O)C1CCC(=O)N/N=C\c1ccccc1[N+](=O)[O-] (stereo unspecified)
    -10%	-3.5	14%	3.8%[38.3 µM]	-2.0%	u	3.0
17) Cc1cc(NC(=O)c2sc(Nc3ccc(F)cc3)nc2N)no1
    0%	1.5	-6%	6.8%	x	-21%	-0.4
18) O=C(c1ccc(Cn2cc([N+](=O)[O-])cn2)o1)N1CCCC1
    5%	2.0	1%	2.2%	0.0%	u	1.0
19) CCN(Cc1cnn(C)c1)C(=O)c1ccc(OC2CCN(S(=O)(=O)N(C)C)CC2)cc1
    2%	-4.0	1%	-0.7%	0.3%	-3%	-7.4
20) CC(C)(C)c1cc(NC(=O)Nc2ccccc2OC(F)(F)F)no1
    20%	-5.3	-6%	13%	-0.1%	u	-2.2
21) CC(O)CN1CC(O)=C(c2nc3ccccc3s2)C1=N (stereo unspecified)
    13%	1.5	3%	1.4%	x	-5%	1.5
22) CN(C)C(=O)CSc1nnc(-c2cc(-c3cccs3)nc3ccccc23)o1
    -4%	-1.9	-12%	12%	25µM*	0%	3.8
23) COc1ccccc1NC(=O)CSCc1cc(=O)n2ccsc2n1
    13%	-5.8	11%	-0.6%	0.7%	u	-7.3
24) CCS(=O)(=O)N1Cc2ccccc2CC1C(=O)Nc1nnc(SCc2c(Cl)cccc2Cl)s1 (stereo unspecified)
    13%	-1.9	-10%	0.4%	-8.3%	0%	6.6
25) CC(=O)c1cc(C)ccc1OC(=O)c1cccc2nc(C)oc12
    6%	-4.8	6%	2.0%	15%	-13%	4.3
26) Cn1c(=O)c2c(-c3ccccc3)n(C3CCCCC3)cc2n(C)c1=O
    6%	-1.0	-8%	1.7%[38.3 µM]	-10%	-11%	5.1
27) CC(=O)Nc1ccc(-c2ccnc3c2CC(C)(C(=O)NCc2cccc(Cl)c2)O3)cc1 (stereo unspecified)
    x	5.1	x	6.0%	4.5%	x	x
28) Cc1nc2sc(C(c3cccc(F)c3)N3CCN(C(=O)c4ccco4)CC3)c(O)n2n1 (stereo unspecified)
    22%	0.7	6%	-0.7%	-0.1%	-11%	-1.4
29) CCOC(=O)C1=C(COC(=O)/C=C/c2ccc(O)c(OC)c2)NC(=O)NC1C (stereo unspecified)
    x	7.4	6%	0.2%	-5.2%	21%	x
30) CCN(CC)S(=O)(=O)c1ccc(NC(=O)C2c3ccccc3Oc3ccccc32)cc1
    10%	-1.8	16%	7.4%	-2.9%	7%	-1.9
31) COc1ccc(C2=NOC(Cn3c(Cc4ccc(Cl)cc4)nc4c3c(=O)n(C)c(=O)n4C)C2)cc1 (stereo unspecified)
    7%	-1.9	-1%	-2.8%	-2.5%	8%	-0.6
32) CCNC(=O)N(C)c1c(CC)nc2ccc(C(=O)Nc3cccc(OCC(=O)N(C)C)c3)cn12
    x	10	x	0.0%	-7.0%	x	x
33) Cc1cccc(-n2c(SCC(=O)O)nc3sc4c(c3c2=O)CCC4)c1
    25%	8.0	-28%	-1.6%	-0.6%	22%	6.1
34) C/C(=N/Nc1ccc(C(=O)O)cc1)c1ccc2c(c1)Nc1ccccc1S2
    x	3.7	-10%	-0.1%	x	u	x
35) CN(C)c1ccc(C=NC(CO)C(O)c2ccc([N+](=O)[O-])cc2)cc1 (stereo unspecified)
    9%	0.4	-10%	-0.2%	x	12%[15.4 µM]	4.3
36) Cc1ccnc(N=Cc2nc(-c3ccccc3Br)oc2O)c1
    -13%	-3.6	u	0.6%	-0.6%	15%	5.7
37) COC(=O)/C=C/c1ccc(OC(=O)c2ccncc2)cc1
    11%	0.2	9%	-0.1%	u	-26%	5.5
38) CCN(CC(=O)Nc1ccc(NC(C)=O)cc1)C(=O)c1cc(-c2ccccc2Cl)nc2ccccc12
    x	2.2	-30%	1.1%	-0.6%	-25%	x
39) CCOC(=O)N1CCC(NC(=O)c2cc3c(-c4ccccc4F)nn(C)c3s2)CC1
    -1%	-0.2	8%	5.8%	4.0%	-22%	0.1
40) COc1cc(OC)c(CN2CCC(Cc3ccccc3)CC2)cc1Br
    -19%	1.2	4%	u	2.7%	-4%	3.7
41) COc1ccc(-c2nc(CS(=O)CC(=O)NCCCN3CCOCC3)c(C)o2)cc1OC (stereo unspecified)
    0%	1.4	6%	0.1%	4.3%	11%	x
42) O=C(Cn1nnc(-c2ccncc2)n1)Nc1ccc2c(c1)CCC2
    -2%	3.0	18%	-1.6%	-0.8%	-15%	-0.1
43) O=C1C(Cc2ccccc2O)NC(=S)N1c1ccccc1 (stereo unspecified)
    16%	-0.2	15%	2.8%	x	-18%[15.4 µM]	1.7
44) Cc1cc(C)cc(C(=O)NC(=S)Nc2ccc3c(c2)OCCO3)c1
    9%	-11	-4%	-0.2%	2.6%	5%	4.8
45) O=C(CCNC(=O)c1ccc(Br)cc1)NC1CCCc2ccccc21 (stereo unspecified)
    x	-1.3	-6%	1.8%	-1.7%	-8%[15.4 µM]	x
46) Cc1c(Br)cc(C(=O)NC2CCCCC2)c(C)c1C
    10%	-3.4	5%	u	2.4%	8%	-0.1
47) Cc1c(NC(=O)/C=C/c2cn(-c3ccccc3)nc2-c2ccc(F)cc2)c(=O)n(-c2ccccc2)n1C
    10%	-3.3	u	4.3%	-4.8%	14%	3.5
48) O=C(NCCc1ccccc1)C1CC(=O)N(CCc2ccccc2)C1 (stereo unspecified)
    12%	0.9	4%	0.1%	-3.1%	u	-0.8
49) COC(=O)[C@H](C)NC(=O)Nc1ccc(Oc2ccccc2)cc1
    1%	-0.5	-10%	x	1.0%	-44%[inhibitor]	-0.8
50) COc1ccc(-c2noc(CCC(=O)Nc3ccc4c(c3)OCCO4)n2)cc1
    2%	-0.1	-15%	3.4%	1.1%	-43%[inhibitor]	-1.0
51) COc1ccc(CC(=O)Nc2nnc(C(C)C)s2)cc1OC
    3%	2.1	16%	0.2%	7.3%	3%[15.4 µM]	-2.1
52) CN(CC(=O)Nc1ccccc1Cl)CC(=O)Nc1cccc2ccccc12
    x	6.8	-12%	0.7%	-0.7%	17%	x
53) CCc1ccccc1NCc1cc(=O)oc2cc(C)ccc12
    -9%	13	3%	11%	x	u	-1.1
54) CCc1ccc(S(=O)(=O)N2CCN(c3ccccc3OC)CC2)cc1
    11%	3.1	-3%	0.6%	1.4%	-7%[15.4 µM]	-0.2
55) CCOC(=O)CCCCCC(=O)Nc1ccc2c(c1)C(=O)N([C@H](C)CO)C[C@H](C)[C@@H](CN(C)C(=O)Nc1ccccc1)OCCCC[C@@H](C)O2
    x	-2.6	x	-1.8%	-5.9%	-10%	x
56) CCOC(=O)c1c(C#N)cnn1-c1ccc(C)cc1
    8%	-14	7%	-1.1%	-4.2%	-3%	-1.3

Structures shown so far that have a tert-butyl group (two):
Order of results – Sfp PPTase inh	D2 agonist	gsp antag	PINK1 expr mod	ClpP mod	gsp agonist	Menin-MLL FL inh
2) CC(C)(C)c1ccccc1NC(=O)NC1CCN(Cc2c(F)cccc2Cl)CC1
    -13%	-0.9	1%	0.7%	x	0%[15.4 µM]	3.6
20) CC(C)(C)c1cc(NC(=O)Nc2ccccc2OC(F)(F)F)no1
    20%	-5.3	-6%	13%	-0.1%	u	-2.2

Screening results (PubChem)
